MT1-MMP act inh: MT1-MMP (human) activation inhibition | P50281 | HT1080 RFP-PRO-GFP cells, GFP/RFP ratio fluorescence, overnight; percent of plate control window, DMSO zero | GFP/RFP ratio change, % at 20 µM | 360,000 compounds, 0.061% hits | AID 651647;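 active = GFP/RFP ratio change of at least 30% with cell ATP level not reduced by more than half and red fluorescence within 50% of control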; also: strong numbers were not always called active
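Material – HT1080 RFP-PRO-GFP cells · Control set – DMSO wells and RFP-L50D-GFP cells · Incubation – overnight cell settling, then overnight compound exposure, 37 °C, 5% CO2 · Compound dosing – single-point 20 µM compound, 1% DMSO · Read-out – GFP/RFP fluorescence ratio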
Env fusion inh: HIV envelope-mediated fusion inhibition. HeLa-JRFL Env/CEM21 cell fusion, luciferase. inhibition, % at 12.3 µM. 360,000 compounds, 1.1% hits. AID 651610;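 active = mean replicate inhibition score of at least 50 and every replicate individually at or above 50; inconclusive = only one of the two criteria met; inactive = mean below 50 and not all replicates reaching 50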;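 also: 0% = plate neutral controls and 100% = maraviroc near 300 nM; one replicate is shown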
UUG fidelity: yeast start codon fidelity modulation; 350,000 compounds, 0.13% hits; S. cerevisiae UUG-firefly luciferase reporter, luminescence/redox ratio; activity score, % at 18.7 µM;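 active = replicate mean at a twofold rise or more, about +100% in these data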;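 also: firefly luciferase made from a UUG start codon reports start codon fidelity; reporter light over untreated wells divided by growth signal over untreated wells; some hits fall short of that in this replicate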
eIF4H inh: inhibitors of RNA binding by human eIF4H; eIF4H fluorescence polarization binding assay; inhibition, % at 35 µM; 290,000 compounds, 0.94% hits; AID 2012;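 active = 50% or more with normal probe brightness, or confirmed in later tests; inconclusive = above 50% with abnormal brightness, or retests that disagree; inactive = below 50% or failed in later tests; about a fifth of its hits are not listed in these tables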;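 also: calls also rest on retests at 20 µM and on dose response follow-up; 0% = protein and probe with vehicle and 100% = probe without protein; strong numbers were not always called active; many hits fall short of the cut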
CSC inhib: blocks cancer stem cells | 300,000 compounds, 1.1% hits | cancer stem cell-like cells viability, luminescence | inhibition, % at 7.5 µM;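 active = mean at 75% or more and at least half the replicates too; inconclusive = mean and replicates disagree; tested in HMLE shEcad cells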;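 also: 0% = median of negative and 100% = median of positive control wells; the first replicate is given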
Rce1 inh: blocks yeast Ras-converting enzyme; 290,000 compounds, 0.27% hits; Q03530; calls only; yeast membranes, quenched prenylated peptide cleavage fluorescence;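 active = fall in fluorescence gain of 50% or more versus controls, with final raw signal at or below 3038400; inconclusive = same 50% fall but final raw signal above 3038400; inactive = fall in fluorescence gain under 50%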;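 also: plate controls were neutral control wells for no effect and wells lacking membranes for full effect; tested at 10 µM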
Target sequence (Q03530 whole entry, looked up): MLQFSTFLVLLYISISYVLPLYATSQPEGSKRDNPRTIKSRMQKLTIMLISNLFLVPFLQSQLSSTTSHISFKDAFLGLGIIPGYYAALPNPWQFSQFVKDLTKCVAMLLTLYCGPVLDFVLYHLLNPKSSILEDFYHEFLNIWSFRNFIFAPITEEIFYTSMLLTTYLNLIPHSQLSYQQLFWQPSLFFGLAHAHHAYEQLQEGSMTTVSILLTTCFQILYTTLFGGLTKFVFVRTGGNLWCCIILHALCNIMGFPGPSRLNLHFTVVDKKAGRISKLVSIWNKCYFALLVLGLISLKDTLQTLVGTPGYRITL
PABP FP inh: PABP-poly(A) binding inhibition. P11940. PABP-poly(A) RNA binding, fluorescence polarization. inhibition, % at 35 µM. 290,000 compounds, 1% hits;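 active = 50% or more with normal probe brightness, or confirmed in later tests; inconclusive = above 50% with abnormal brightness, or retests that disagree; inactive = below 50% or failed in later tests; about a fifth of its hits are not listed in these tables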;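 also: calls also rest on retests at 20 µM and on dose response follow-up; controls were probe without protein and protein plus probe with vehicle; some compounds called inactive have numbers as strong as hits; many hits fall short of the cut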
Target sequence (P11940 whole entry, looked up): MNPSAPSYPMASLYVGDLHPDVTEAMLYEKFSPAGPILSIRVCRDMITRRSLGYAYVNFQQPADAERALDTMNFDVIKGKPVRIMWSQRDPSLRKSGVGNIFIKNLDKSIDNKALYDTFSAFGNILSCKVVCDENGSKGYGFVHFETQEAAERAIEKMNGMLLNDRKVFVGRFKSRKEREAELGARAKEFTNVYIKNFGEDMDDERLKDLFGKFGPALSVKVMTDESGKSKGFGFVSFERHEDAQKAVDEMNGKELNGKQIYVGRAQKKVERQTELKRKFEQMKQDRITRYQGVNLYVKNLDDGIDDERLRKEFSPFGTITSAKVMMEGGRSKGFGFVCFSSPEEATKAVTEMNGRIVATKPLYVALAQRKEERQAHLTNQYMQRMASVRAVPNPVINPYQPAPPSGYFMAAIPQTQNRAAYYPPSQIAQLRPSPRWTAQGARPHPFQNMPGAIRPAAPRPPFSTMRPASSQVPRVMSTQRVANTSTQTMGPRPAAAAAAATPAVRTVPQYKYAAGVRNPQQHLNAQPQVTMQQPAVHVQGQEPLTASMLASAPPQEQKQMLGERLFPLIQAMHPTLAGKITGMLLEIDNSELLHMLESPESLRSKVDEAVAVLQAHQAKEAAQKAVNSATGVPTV
eIF4H inh retest: second read-out of eIF4H inh, no call of its own (marks repeat the call); inhibition, %; compound at 20 µM; confirmation average;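 mean of two retest wells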
PABP FP inh retest: recorded beside PABP FP inh, whose call it bears; inhibition, %; compound at 20 µM; confirmation repeats;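 mean of two retest wells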
MT1-MMP act inh RFP: recorded beside MT1-MMP act inh, whose call it bears; RFP signal change, %; measured here: RFP expression control read;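 0 = vehicle wells; hits needed this value within 50% of zero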
* = called active by the depositor; i = inactive; ? = inconclusive; . = no result given; ! = repeats disagree.

SMILES | MT1-MMP act inh | MT1-MMP act inh RFP | Env fusion inh | UUG fidelity | eIF4H inh | CSC inhib | Rce1 inh | PABP FP inh | others
COC(=O)c1ccc(NC(=O)CSc2nnc(-c3ccncc3)n2C)cc1 | 2 | -1 | -159 | -17 | 6 | 4 | i | -13
COc1ccc(NC(=O)CN(Cc2ccccc2)Cc2ccccc2)cc1S(N)(=O)=O | 0 | -5 | . | . | -5 | . | i | 0
Cc1cc(C)c(S(=O)(=O)N2CCCCC2C(=O)O)c(C)c1 (stereo unspecified) | 4 | 9 | 2 | . | 2 | -4 | i | 8
Cc1ccc(C)n1-c1ccc(N2CCOCC2)c(Br)c1 | -2 | 1 | . | -7 | -5 | -2 | i | 0
O=c1c2cc(N3CCOCC3)ccc2[nH]c(=S)n1Cc1cccc(Cl)c1 | 2 | -9 | -12 | -36 | 5 | -4 | i | -7
CC1CC(C)(C)CC2(C1)NC(=O)N(CC(=O)OCc1ccc(Br)cc1)C2=O (stereo unspecified) | 0 | -2 | . | -4 | . | -14 | . | .
CCOC(=O)C1=C(c2ccccc2)NC(=O)N(C(C)=O)C1c1cccc([N+](=O)[O-])c1 (stereo unspecified) | 3 | 5 | -5 | . | -2 | 12 | i | 6
CCCc1cc(=O)oc2cc(OCc3ccc(C(=O)O)o3)ccc12 | -3 | 2 | 0 | 0 | 1 | -6 | i | 2
CCCSCCCNC(=O)CC1Oc2ccccc2NC1=O (stereo unspecified) | -5 | 8 | -307 | -16 | 4 | 3 | i | 4
COc1ccccc1/C=N\N=C(\N)c1ccccn1 | 1 | 2 | -18 | . | 6 | -6 | i | 2
O=C1c2cccnc2C(=O)N1c1cccc([N+](=O)[O-])c1 | 3 | 0 | 9 | -12 | -6 | -9 | i | 3
CSc1sc(C(=O)NNC(=O)c2ccc(Cl)cc2)c2c1C=CCC2 | 1 | 2 | 0 | -18 | 0 | 5 | i | -2
COc1ccc(C(=O)/C=C/Nc2cc(C)on2)c(OC)c1 | 1 | 3 | -47 | -10 | -7 | 2 | i | -9
Cc1ccc(C(=O)c2ccccc2C(=O)Nc2ccccc2)cc1 | -4 | 0 | 11 | 10 | . | -13 | i | .
Cc1c(CC(=O)O)c(=O)oc2cc(OCc3ccc(F)cc3Cl)ccc12 | 1 | 3 | -19 | -16 | 4 | -2 | i | 7
CC(NC(=O)C(NS(=O)(=O)c1cccc2nsnc12)C(C)C)c1ccccc1 (stereo unspecified) | 3 | 10 | . | -17 | -7 | 2 | i | -6
Cc1c(C2(O)CCCCC2)[nH]c2cnccc12 | 5 | 1 | 6 | 17 | . | 8 | . | .
Cc1ccc2nc(-c3ccncc3)cc(C(=O)Nc3ccc(F)cc3C)c2c1 | 2 | -3 | -4 | -10 | 3 | -1 | i | 4
C=CCn1c(SCc2ccccc2F)nc2cc(C(=O)O)ccc2c1=O | -4 | 1 | 19 | 2 | 6 | 3 | i | -6
Cc1ccc(C)c(C(=O)CCC(=O)N2CCN(c3cccc(C(F)(F)F)c3)CC2)c1 | 5 | 7 | . | -12 | . | 35 | . | .
CC(=O)NCCOc1nc(N(C)C)nc(N2CCOCC2)n1 | -4 | 1 | -17 | -22 | -4 | 5 | i | -2
Cc1cc(=O)[nH]c(-c2ccccc2)n1 | 3 | 5 | 14 | -15 | 4 | -11 | i | -15
CS(=O)(=O)Cc1cc(N2CCCC2)nc(-c2ccccc2)n1 | -4 | 3 | -3 | -1 | -3 | -5 | i | 0
C/C(=N\NC(=O)CC(C)C)c1ccc(Cl)c(Cl)c1 | 7 | 9 | -87 | -6 | 6 | 15 | i | -3
O=C(NC(=S)Nc1ccccc1[N+](=O)[O-])c1ccccc1 | 2 | 0 | -25 | . | -4 | 5 | i | -1
CC(C)CC1NC2(C(=O)N(C)c3ccccc32)C2C(=O)N(C(C)C)C(=O)C12 (stereo unspecified) | 0 | 3 | 2 | -10 | -6 | -8 | i | -2
O=C1/C(=C/c2cccnc2)SC(=NCc2ccccc2)N1Cc1ccccc1 | 3 | 1 | 6 | . | -10 | . | i | 7
C[C@@H]1OC(Nc2ccc(N=Nc3ccccc3)cc2)[C@H](O)[C@H](O)[C@H]1O (stereo partly specified) | 6 | -6 | -43 | 21 | -8 | -22 | i | 0
c1csc(-c2nc(N3CCCCC3)no2)c1 | 0 | 1 | -74 | -18 | -3 | 11 | i | 0
COn1c2c(c3c4no[n+]([O-])c4ccc31)CCCC2 | -4 | 3 | 10 | -2 | 3 | -7 | i | -3
COc1ccc(C(=O)O/N=C/c2c(C(F)(F)F)nn(C)c2SCc2ccccc2Cl)cc1 | -5 | -11 | -26 | -20 | 0 | 60 | i | 1
CCCCC1(C)OC(=O)C(=Cc2ccc(SC)cc2)C(=O)O1 (stereo unspecified) | 5 | 6 | 4 | . | 3 | -14 | i | -7
O=C(Nc1ccc(F)cc1F)C1CCN(c2ncnc3c2sc2cccc(F)c23)CC1 | 1 | -5 | 18 | -16 | 9 | 8 | i | -12
CCOC(=O)c1cnn(CCOC(=O)Cc2cccs2)c1NC(=O)Cc1cccs1 | -5 | 0 | -13 | 21 | -8 | -2 | i | -9
C[C@@H]1CN([C@H](C)CO)C(=O)c2cc(C#CC3CCCCC3)cnc2O[C@H]1CN(C)Cc1cccnc1 | 2 | 1 | 2 | 162*! | . | . | . | .
Cc1ccc(NC(=O)COC(=O)C2(c3ccc(Cl)cc3)CCCC2)cc1 | -9 | -17 | -12 | -28 | 3 | 15 | i | 1
O=C(Nc1ccc2c(c1)CCCN2C(=O)c1ccccc1)c1ccccc1Br | 7 | 0 | 6 | -13 | 0 | 28 | i | 3
Cc1cc(C(C)(C)C)ccc1NC(=O)CC(C)(C)CC(=O)O | 0 | 3 | -47 | -11 | 13 | -18 | i | 14
O=C(Cc1c(F)cccc1Cl)Nc1cc(S(=O)(=O)N2CCOCC2)ccc1N1CCCC1 | -3 | -4 | . | -12 | . | -17 | . | .
CC(c1ccccc1F)n1cc(C(=O)NCCCc2nc3ccccc3[nH]2)nn1 (stereo unspecified) | 1 | 1 | -104 | . | 3 | 14 | i | 9
COCCNC(=O)c1cc2cc3ccc(OC)cc3nc2o1 | 2 | 0 | -13 | -2 | -5 | -3 | i | 4
COc1cccc(NC(=O)CN(C)C(=O)c2cn(-c3ccccc3)nc2-c2cccnc2)c1 | -3 | -4 | . | -16 | . | -11 | . | .
COc1cccc(N(CC(=O)NC2CCCCC2)C(=O)c2snc(C(N)=O)c2N)c1 | -2 | 1 | -10 | -10 | 3 | 7 | i | -2
O=C(O)C1CCN(S(=O)(=O)c2ccc3c(c2)OCCCO3)CC1 | 1 | 3 | -4 | -16 | -5 | . | i | 54 | eIF4H inh retest=-8;PABP FP inh retest=47
COc1ccc(-c2cc(C(F)(F)F)c(C#N)c(SCC(=O)Nc3nc(C)co3)n2)cc1 | -189 | -1 | . | -6 | ? | . | i | ?
CN(C)C(=S)NC(=O)C12CC3CC(C)(CC(C)(C3)C1)C2 | 1 | 3 | 8 | . | -1 | 14 | . | 5
COc1cccc(-c2n[nH]nc2C2=CC(=O)C[C@H](c3ccc(F)cc3)C2)c1 | -2 | -9 | 8 | -9 | . | . | . | .
Nc1c(C(=O)C2CC2)sc2nc3c(cc12)CCC3 | 0 | 1 | -90 | . | -1 | 6 | i | -3
COCCC(=O)N1CCC(Oc2ccc(C(=O)N3C[C@H]4CC[C@H]3C4)cc2)CC1 | 1 | -3 | -27 | -7 | -1 | -3 | i | 2
COc1ccc(OC)c(NC(=O)COc2ccc(Br)cc2)c1 | 1 | 4 | 8 | -12 | 4 | -13 | i | 9

Next part
SMILES | MT1-MMP act inh | MT1-MMP act inh RFP | Env fusion inh | UUG fidelity | eIF4H inh | CSC inhib | Rce1 inh | PABP FP inh | others
C/C=C/COC(=O)C1=C(C)NC(=O)NC1c1ccc2c(c1)OCO2 (stereo unspecified) | -2 | -6 | 8 | -1 | -2 | -5 | i | -2
O=C(CCS(=O)(=O)c1ccc(Cl)cc1)Oc1ccc2c(c1)OCO2 | 1 | 1 | . | -7 | 9 | 4 | i | 9
Cc1ccc(NC(=O)COc2coc(CN3CCc4ccccc4C3)cc2=O)c(C)c1 | -1 | -4 | -3 | 3 | . | -11 | i | .
COc1ccc(CC(=O)OC(C)C(=O)Nc2ccc(S(N)(=O)=O)cc2)cc1 (stereo unspecified) | 3 | -2 | 6 | 4 | . | . | i | .
COc1cccc(NC(=O)CN(C)C(=O)c2cc(C3CC3)nn2-c2ccccc2)c1 | 0 | -6 | 12 | 1 | . | -11 | . | .
Cn1c(=O)c2cc(NC(=O)Cc3cccc4ccccc34)ccc2n1-c1ccccc1 | -1 | -6 | -42 | -9 | . | . | . | .
O=C(N/N=C1/SCC(=O)N1Cc1ccco1)c1ccccc1F | -6 | 1 | 4 | . | 1 | . | i | 4
N#CCC(=O)N/N=C\c1ccccc1OC/C=C/c1ccccc1 | -4 | -2 | -75 | -13 | 5 | 65 | i | 1
CCCCN1CN(Cc2ccccc2)CNC1=S | 2 | 6 | . | -18 | -14 | . | i | 3
Cc1ccc(-n2ncc3c(N4CCCC(C)C4)ncnc32)c(C)c1 (stereo unspecified) | -4 | -14 | -29 | -13 | -3 | 37 | i | 12
Cc1ccc(NC(=S)Nc2ccc(C(C)C)cc2)cc1S(=O)(=O)N1CCCCCC1 | -7 | -29 | . | . | -4 | 75* | i | 2
Cc1cc(C)n(-c2ccc(Cl)c(C(=O)OCC(=O)N3CCCCC3C)n2)n1 (stereo unspecified) | 3 | 3 | . | -1 | -1 | -5 | i | -9

Ordered by SMILES length (smallest number first): part of the list above
SMILES | MT1-MMP act inh | MT1-MMP act inh RFP | Env fusion inh | UUG fidelity | eIF4H inh | CSC inhib | Rce1 inh | PABP FP inh | others
CCCCN1CN(Cc2ccccc2)CNC1=S | 2 | 6 | . | -18 | -14 | . | i | 3
COc1ccc(OC)c(NC(=O)COc2ccc(Br)cc2)c1 | 1 | 4 | 8 | -12 | 4 | -13 | i | 9
O=C(N/N=C1/SCC(=O)N1Cc1ccco1)c1ccccc1F | -6 | 1 | 4 | . | 1 | . | i | 4
Cc1ccc(-n2ncc3c(N4CCCC(C)C4)ncnc32)c(C)c1 (stereo unspecified) | -4 | -14 | -29 | -13 | -3 | 37 | i | 12
C/C=C/COC(=O)C1=C(C)NC(=O)NC1c1ccc2c(c1)OCO2 (stereo unspecified) | -2 | -6 | 8 | -1 | -2 | -5 | i | -2
Cc1cc(C)n(-c2ccc(Cl)c(C(=O)OCC(=O)N3CCCCC3C)n2)n1 (stereo unspecified) | 3 | 3 | . | -1 | -1 | -5 | i | -9
Cn1c(=O)c2cc(NC(=O)Cc3cccc4ccccc34)ccc2n1-c1ccccc1 | -1 | -6 | -42 | -9 | . | . | . | .
Cc1ccc(NC(=S)Nc2ccc(C(C)C)cc2)cc1S(=O)(=O)N1CCCCCC1 | -7 | -29 | . | . | -4 | 75* | i | 2

Screening results deposited in PubChem BioAssay by several laboratories.
